Screens (PubChem BioAssay)
Vaccinia stage = blocks a specific stage of Vaccinia orthopoxvirus infection; Vaccinia-infected cells, mCherry/Venus stage reporter fluorescence; active compounds read low; some inactives read as strong as hits; 89,000 compounds, 0.01% hits; activity change (mCherry), % (test concentration not listed);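 active means mCherry past -33% and 40 or more points under the early reporter, replicates agreeing; inconclusive means past -33% without that gap or agreement; tested in A549 cells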;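 further: scaled between vehicle wells and reference inhibitor wells; 23 nL library stock went into each well; one replicate is shown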
Vaccinia stage Venus = second read-out of Vaccinia stage, no call of its own (marks repeat the call); activity change (Venus), %; measured here: Venus reporter, other viral stage;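 negative = less Venus signal; first of two replicates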
Starred values were filed as active, the others as inactive; ? = inconclusive; . = not tested or not shown; & = joins results of further samples. An excerpt; count on the stated rates, not on these rows.

SMILES | Vaccinia stage | Vaccinia stage Venus
O=C(C[C@@H]1CC[C@H]2[C@@H](COC[C@@H](O)CN2CC2CCOCC2)O1)NCc1ccc(Cl)cc1 | 15.3 | 5.3
CCCNC(=O)Nc1ccc2c(c1)OC[C@@H](C)N(CC1CCCC1)C[C@H](C)[C@H](OC)CN(C)C2=O | 12.1 | -0.1
CNC[C@@H]1Oc2cc(-c3cccc(F)c3)ccc2S(=O)(=O)N([C@@H](C)CO)C[C@H]1C | 10.2 | 16.5
Cc1cc(C(=O)Nc2cccc3c2O[C@H](CN(C)Cc2ccccc2)[C@H](C)CN([C@@H](C)CO)C3=O)n(C)n1 | -2.2 | 1.3
COc1ccc(C(=O)Nc2ccc3c(c2)OC[C@@H](C)N(C(C)=O)C[C@H](C)[C@H](OC)CN(C)C3=O)cc1 | 14.6 | 9.6
Cc1ccc(S(=O)(=O)Nc2ccc3c(c2)CC(=O)N([C@H](C)CO)C[C@@H](C)[C@H](CN(C)Cc2ccc(C(=O)Nc4ccccc4N)cc2)O3)cc1 | 2.8 | 5.0
CCCC#Cc1ccc2c(c1)O[C@H](CN(C)C(=O)c1cnccn1)[C@H](C)CN([C@H](C)CO)S2(=O)=O | 5.4 | 10.2
CCC(=O)N1[C@@H]2c3ccc(C4=CCCC4)c(=O)n3C[C@@H]2[C@@H](CO)[C@@H]1C(=O)NC1CCCC1 | 15.1 | 11.0
O=C(C[C@H]1C[C@@H]2c3cc(NS(=O)(=O)c4ccc(F)cc4)ccc3O[C@@H]2[C@@H](CO)O1)NCc1ccc(-c2ccccc2)cc1 | ? | .
CC(C)NC(=O)Nc1ccc2c(c1)C(=O)N([C@@H](C)CO)C[C@H](C)[C@H](CN(C)S(=O)(=O)c1ccccc1)O2 | 18.1 | 12.2
N#Cc1cccc(-c2ccc3c(c2)[C@H]2[C@H](CCN2Cc2ccncc2)[C@@H](CO)N3)c1 | -28.1 | -16.2
C[C@H]1CN([C@@H](C)CO)C(=O)Cc2cc(NC(=O)C3CCCCC3)ccc2O[C@@H]1CN(C)C(=O)Nc1ccc(C(F)(F)F)cc1 | -5.9 | 1.9
COc1ccc(S(=O)(=O)N(C)C[C@H]2OCCCC[C@H](C)Oc3ccc(NS(=O)(=O)c4c(C)noc4C)cc3C(=O)N([C@H](C)CO)C[C@H]2C)cc1 | ? | .
C[C@@H]1CCCCO[C@H](CN(C)S(=O)(=O)c2cccs2)[C@H](C)CN([C@@H](C)CO)C(=O)c2cc(NS(=O)(=O)c3ccc(F)cc3)ccc2O1 | ? | .
C[C@H]1CN([C@@H](C)CO)S(=O)(=O)c2ccc(C#Cc3ccccn3)cc2O[C@@H]1CN(C)C(=O)C1CC1 | -28.1 | -19.3

The final 2 records of the part before are carried over, then new ones follow:
SMILES | Vaccinia stage | Vaccinia stage Venus
C[C@@H]1CCCCO[C@H](CN(C)S(=O)(=O)c2cccs2)[C@H](C)CN([C@@H](C)CO)C(=O)c2cc(NS(=O)(=O)c3ccc(F)cc3)ccc2O1 | ? | .
C[C@H]1CN([C@@H](C)CO)S(=O)(=O)c2ccc(C#Cc3ccccn3)cc2O[C@@H]1CN(C)C(=O)C1CC1 | -28.1 | -19.3
C[C@H](CO)N1C[C@H](C)[C@H](CN(C)C(=O)CN(C)C)Oc2cc(Br)ccc2S1(=O)=O | 10.9 | 6.2
COC(=O)C[C@@H]1C[C@@H]2c3cc(NC(=O)c4ccc5c(c4)OCO5)ccc3O[C@@H]2[C@@H](CO)O1 | 7.1 | 16.3
O=C(CC(F)(F)F)N1C[C@@H]2[C@H](c3ccccc31)[C@H](CO)N2C(=O)C1CCCCC1 | -10.0 | 2.5
COCC(=O)N[C@@H]1C=C[C@@H](CC(=O)N2CCCCC2)O[C@@H]1CO | 8.4 | 1.4
CCC(=O)N1C[C@@H](C)[C@H](OC)CN(C)C(=O)c2ccc(NC(=O)C3CCCCC3)cc2OC[C@H]1C | -0.7 | -2.7
CCC(=O)N(C)C[C@@H]1Oc2cc(-c3ccc(OC)cc3)ccc2S(=O)(=O)N([C@H](C)CO)C[C@H]1C | 2.7 | -2.0
C[C@@H]1CCCCO[C@@H](CN(C)Cc2ccccc2)[C@@H](C)CN([C@@H](C)CO)C(=O)c2cc(NS(=O)(=O)c3cn(C)cn3)ccc2O1 | 18.0 | 15.7
COc1ccc(CN(C)C[C@@H]2Oc3ccc(NC(=O)Nc4ccc(C(F)(F)F)cc4)cc3C(=O)N([C@@H](C)CO)C[C@H]2C)cc1 | ? | .
O=C(Cc1ccccn1)N[C@@H]1CC[C@H](CCn2cc(-c3ccc(F)cc3)nn2)O[C@@H]1CO | 11.0 | 0.0
COc1ccc(S(=O)(=O)Nc2ccc3c(c2)C(=O)N([C@H](C)CO)C[C@H](C)[C@H](CN(C)C(=O)Cc2ccccc2)OCCCC[C@H](C)O3)cc1 | -32.3 | -21.7
C[C@@H]1CN([C@H](C)CO)S(=O)(=O)c2ccc(C#Cc3ccc(F)cc3)cc2O[C@@H]1CN(C)S(=O)(=O)c1ccc(F)cc1 | -34.3 | -31.0
O=C(c1ccccc1)N1CC(=O)N2[C@@H](CO)[C@@H](c3ccc(C#CCC4CCCC4)cc3)[C@@H]2C1 | ? | .
COCC#Cc1ccc2c(c1)O[C@H](CN(C)C(=O)Nc1ccccc1F)[C@@H](C)CN([C@@H](C)CO)S2(=O)=O | 3.7 | 4.8
COc1ccc(CN(C)C[C@@H]2Oc3ccc(NC(=O)NC(C)C)cc3CC(=O)N([C@@H](C)CO)C[C@H]2C)cc1 | 4.5 | 1.6
CCC(=O)N(C)C[C@H]1Oc2cc(-c3cccc(F)c3)ccc2S(=O)(=O)N([C@H](C)CO)C[C@@H]1C | -6.3 | -8.3
O=C(NC1CCCC1)N1CCCCN2[C@H](C1)[C@H](c1ccc(-c3cncnc3)cc1)[C@@H]2CO | 14.7 | 7.5
CN(C)C(=O)c1cccc(-c2ccc([C@H]3[C@@H](CO)N4CCCCN(CC5CCOCC5)C[C@@H]34)cc2)c1 | 9.0 | 2.9
O=C(C1CCCC1)N1CCCCN2[C@H](CO)[C@@H](c3ccc(-c4cccc(F)c4)cc3)[C@H]2C1 | ? | .
C[C@H]1CN([C@@H](C)CO)C(=O)Cc2cc(NS(=O)(=O)c3ccc(F)cc3)ccc2O[C@H]1CN(C)CC1CCCCC1 | ? | .
O=C(Nc1ccc(F)cc1)N[C@H]1C=C[C@@H](CC(=O)N2CCCCC2)O[C@@H]1CO | 8.3 | 2.2
C[C@H]1CCCCO[C@H](CN(C)C(=O)Nc2cccc3ccccc23)[C@@H](C)CN([C@@H](C)CO)C(=O)c2cc(N(C)C)ccc2O1 | ? | .
C[C@H](CO)N1C[C@H](C)[C@H](CN(C)C(=O)NC2CCCC2)Oc2ncc(-c3ccc(F)cc3)cc2C1=O | 1.2&0.1 | -2.3&-0.9
CS(=O)(=O)Nc1ccc2c(c1)[C@@H]1C[C@H](CC(=O)NCc3ccccc3F)O[C@@H](CO)[C@@H]1O2 | -0.9 | -3.6
COCC(=O)Nc1ccc2c(c1)C(=O)N(C)[C@H]1CC[C@H](CC(=O)Nc3ccccc3OC)O[C@@H]1CO2 | 1.7 | -0.3
O=C(Cc1ccccc1)N1CC(=O)N2[C@H](C1)[C@@H](c1ccc(C#Cc3ccccc3)cc1)[C@@H]2CO | -25.0 | -24.8
O=C(CCN1CCCCC1)NCC[C@@H]1CC[C@H](NC(=O)C2CCC2)[C@@H](CO)O1 | 4.0 | 13.0
CC(C)C#Cc1ccc2c(c1)O[C@H](CN(C)C(=O)CN(C)C)[C@H](C)CN([C@H](C)CO)S2(=O)=O | -20.3 | -16.1
C[C@@H]1CN([C@@H](C)CO)C(=O)c2cc(NC(=O)Nc3ccccc3)ccc2O[C@@H]1CN(C)C(=O)Nc1ccc(F)cc1 | 16.1 | 6.4
O=C1C=CCCN1S(=O)(=O)/C=C/c1ccccc1 | ? | .
Cc1noc(C)c1S(=O)(=O)N(C)C[C@H]1OCCCC[C@H](C)Oc2ccc(NC(=O)Nc3cccc4ccccc34)cc2C(=O)N([C@H](C)CO)C[C@@H]1C | -3.9 | 13.1
COCC(=O)N(C)C[C@@H]1Oc2cc(-c3cccnc3)ccc2S(=O)(=O)N([C@H](C)CO)C[C@H]1C | 21.0 | 9.2
CN(C)C(=O)C[C@@H]1C[C@@H]2c3cc(NC(=O)Nc4ccc(C(F)(F)F)cc4)ccc3O[C@@H]2[C@@H](CO)O1 | -7.9 | -9.2
COc1ccc(NC(=O)N(C)C[C@H]2OCCCC[C@H](C)Oc3ccc(NS(=O)(=O)c4ccccc4)cc3C(=O)N([C@@H](C)CO)C[C@H]2C)cc1 | -8.2 | -6.9
O=C(N[C@@H]1CC[C@H](CCNS(=O)(=O)c2ccc(F)cc2)O[C@@H]1CO)c1cnccn1 | -4.3 | 6.2
C[C@@H]1CCCCO[C@@H](CN(C)C(=O)NC2CCCCC2)[C@H](C)CN([C@@H](C)CO)C(=O)c2cc(NC(=O)Nc3ccc(F)cc3)ccc2O1 | -15.7 | -9.5
CCC(=O)Nc1ccc2c(c1)C(=O)N(C)[C@H]1CC[C@@H](CC(=O)NCCc3ccccc3)O[C@H]1CO2 | -8.7 | -5.3
O=C(C1CC1)N1CC(=O)N2[C@H](CO)[C@@H](c3ccc(C#CCc4ccccc4)cc3)[C@H]2C1 | -7.3 | -3.6
C/C=C/c1ccc([C@H]2[C@@H](CO)N(C(C)=O)[C@@H]2CNC(=O)c2ccccc2)cc1 | -0.7 | 7.1
C[C@@H]1CN([C@@H](C)CO)C(=O)c2cc(NS(C)(=O)=O)ccc2O[C@@H](C)CCCCO[C@H]1CN(C)C(=O)CCCN(C)C | -0.9 | 0.6
C[C@@H]1CN([C@H](C)CO)C(=O)Cc2cc(NS(=O)(=O)c3cccs3)ccc2O[C@@H]1CN(C)C(=O)Nc1ccccc1 | 18.3 | 20.8
COc1ccc(NC(=O)Nc2ccc3c(c2)C(=O)N([C@H](C)CO)C[C@@H](C)[C@@H](CN(C)Cc2ccc(C(F)(F)F)cc2)OCCCC[C@@H](C)O3)cc1 | -32.7 | -27.8
C[C@H]1CN([C@@H](C)CO)C(=O)c2cccc(NC(=O)Nc3ccc4c(c3)OCO4)c2O[C@H]1CN(C)S(C)(=O)=O | 12.5 | 8.9
C[C@@H]1CN([C@H](C)CO)C(=O)c2cccc(NC(=O)Nc3ccc4c(c3)OCO4)c2O[C@H]1CN(C)S(=O)(=O)c1cn(C)cn1 | 13.4 | 4.8
CS(=O)(=O)N1[C@H](C#N)[C@H](c2ccc(C#CC3CC3)cc2)[C@H]1CO | -8.3 | -0.7
CC(C)C#Cc1cnc2c(c1)C(=O)N([C@@H](C)CO)C[C@H](C)[C@@H](CN(C)S(=O)(=O)c1cn(C)cn1)O2 | 23.1 | 4.7
CCc1cnc(N2[C@H](C#N)[C@@H](c3ccc(C#Cc4ccccc4F)cc3)[C@@H]2CO)s1 | -14.0 | -13.6
C[C@H]1CN([C@@H](C)CO)C(=O)c2cc(NC(=O)c3ccncc3)ccc2O[C@@H]1CN(C)C(=O)Nc1ccc(F)cc1 | -1.5 | 0.5
C[C@H](O)C#Cc1cnc2c(c1)C(=O)N([C@@H](C)CO)C[C@H](C)[C@H](CN(C)CC1CCOCC1)O2 | 8.1 | 1.8

14 successive records out of the list so far:
SMILES | Vaccinia stage | Vaccinia stage Venus
COCC(=O)N(C)C[C@@H]1Oc2cc(-c3cccnc3)ccc2S(=O)(=O)N([C@H](C)CO)C[C@H]1C | 21.0 | 9.2
CN(C)C(=O)C[C@@H]1C[C@@H]2c3cc(NC(=O)Nc4ccc(C(F)(F)F)cc4)ccc3O[C@@H]2[C@@H](CO)O1 | -7.9 | -9.2
COc1ccc(NC(=O)N(C)C[C@H]2OCCCC[C@H](C)Oc3ccc(NS(=O)(=O)c4ccccc4)cc3C(=O)N([C@@H](C)CO)C[C@H]2C)cc1 | -8.2 | -6.9
O=C(N[C@@H]1CC[C@H](CCNS(=O)(=O)c2ccc(F)cc2)O[C@@H]1CO)c1cnccn1 | -4.3 | 6.2
C[C@@H]1CCCCO[C@@H](CN(C)C(=O)NC2CCCCC2)[C@H](C)CN([C@@H](C)CO)C(=O)c2cc(NC(=O)Nc3ccc(F)cc3)ccc2O1 | -15.7 | -9.5
CCC(=O)Nc1ccc2c(c1)C(=O)N(C)[C@H]1CC[C@@H](CC(=O)NCCc3ccccc3)O[C@H]1CO2 | -8.7 | -5.3
O=C(C1CC1)N1CC(=O)N2[C@H](CO)[C@@H](c3ccc(C#CCc4ccccc4)cc3)[C@H]2C1 | -7.3 | -3.6
C/C=C/c1ccc([C@H]2[C@@H](CO)N(C(C)=O)[C@@H]2CNC(=O)c2ccccc2)cc1 | -0.7 | 7.1
C[C@@H]1CN([C@@H](C)CO)C(=O)c2cc(NS(C)(=O)=O)ccc2O[C@@H](C)CCCCO[C@H]1CN(C)C(=O)CCCN(C)C | -0.9 | 0.6
C[C@@H]1CN([C@H](C)CO)C(=O)Cc2cc(NS(=O)(=O)c3cccs3)ccc2O[C@@H]1CN(C)C(=O)Nc1ccccc1 | 18.3 | 20.8
COc1ccc(NC(=O)Nc2ccc3c(c2)C(=O)N([C@H](C)CO)C[C@@H](C)[C@@H](CN(C)Cc2ccc(C(F)(F)F)cc2)OCCCC[C@@H](C)O3)cc1 | -32.7 | -27.8
C[C@H]1CN([C@@H](C)CO)C(=O)c2cccc(NC(=O)Nc3ccc4c(c3)OCO4)c2O[C@H]1CN(C)S(C)(=O)=O | 12.5 | 8.9
C[C@@H]1CN([C@H](C)CO)C(=O)c2cccc(NC(=O)Nc3ccc4c(c3)OCO4)c2O[C@H]1CN(C)S(=O)(=O)c1cn(C)cn1 | 13.4 | 4.8
CS(=O)(=O)N1[C@H](C#N)[C@H](c2ccc(C#CC3CC3)cc2)[C@H]1CO | -8.3 | -0.7
